# CSM14.1 death rescue: protection against thapsigargin-triggered cell killing – 384-well, CSM14.1, ATP luminescence, primary screen (AID 1222); cellular ATP content (survival), % at 20 µM; hits with a dose series show EC50 in µM; 190,000 tested, under 10 active; CSM14.1 thapsigargin-induced death rescue, ATP luminescence; higher % means a stronger effect;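 active = EC50 below 50 µM in the dose-response confirmation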;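 also: death triggered by thapsigargin at about 15 µM added after 2 h compound pretreatment; cell ATP read after overnight thapsigargin exposure of roughly 18 to 22 hours; normalized against plate controls of thapsigargin alone and 5% DMSO vehicle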
# WT yeast gro inh: growth inhibition of WT yeast, mitochondrial fusion screen | 190,000 compounds, 2.1% hits | AID 1362 | inhibition, % at 10 µM | mitochondrial fusion phenotypic screen, WT strain; in the data active = inhibition above about 58%; tested in S. cerevisiae
# TNAP activators: human TNAP enzyme activators, primary screen, biochemical, luminescent, no phosphate acceptor, uHTS (AID 1001) | purified TNAP, luminescent activation assay, no phosphate acceptor; higher activation fold means a stronger effect | activation fold at 20 µM, or EC50 in µM where a hit was titrated | 200,000 compounds, 0.03% hits; in the data active = activation fold from about 3, or a potency from the dose series; inactive = the rest, 99 in 100 with activation fold below about 1.6; also: many of its hits are not listed in these tables
# Myeloid diff 2: promotes myeloid progenitor differentiation; ER-HoxA9 myeloid progenitors, lysozyme-GFP differentiation, flow cytometry; calls only at 10 µM; 360,000 compounds, 1% hits; AID 624256;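 active = normalized GFP-positive differentiation at or above the plate's own cutoff, the solvent-only control mean plus 3 SD; inconclusive = no clear call, values can overlap the other calls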;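 also: cells exposed to compound for four days before flow analysis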
# Hep lipid drop: modulators of hepatic lipid droplet formation; AML12 mouse hepatocytes, oleate lipid droplets, BODIPY imaging; inhibition, % at 6.5 µM; 240,000 compounds, 0.4% hits;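 active = lipid droplet intensity inhibited by at least 50%, with more than 500 cells counted; inconclusive = wells with under 300 cells, treated as cytotoxic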
#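 Material – mouse AML12 hepatocyte cell line, fixed after treatment · Compound dosing – one dose, 6.5 µM compound · Times – compound with oleate, overnight · Measured by – Image-based BODIPY and DAPI two-channel analysis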
# M1AAP inhibition: malaria alanyl aminopeptidase activity blockers – biochemical, fluorogenic H-Leu-NHMec substrate, 1536-well (AID 1445) | recombinant M1AAP, H-Leu-NHMec fluorogenic kinetic assay; higher % means a stronger effect | inhibition, % at 30 µM; hits with a dose series show IC50 in µM | 220,000 compounds, 0.42% hits;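 active = primary inhibition above the hit cutoff, then over 50% inhibition at one or more dose response concentrations, cut at about 23% in these data, passing the limit was not always enough; inconclusive = conflicting primary data, or primary hits not chosen for dose response; inactive = low primary inhibition, or under 50% at every dose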;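 also: plate controls were DMSO full reaction for no effect and no enzyme background for full effect; strong numbers were not always called active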
# UTI89 phage lysis: inhibition of K1F phage lysis, E. coli UTI89, bacterial capsule biogenesis inhibitors, alamar blue (AID 488966); 340,000 compounds, 0.02% hits; inhibition, % at 100 µM; hits with a dose series show IC50 in µM; E. coli UTI89 K1F phage lysis, alamar blue, 2 h; higher % means a stronger effect;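 active = phage lysis inhibition, versus mean bacterial control, above a set limit; inconclusive = no clear call, values can overlap the other calls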;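 also: capsule biogenesis inhibitors block K1F phage lysis so surviving cells raise fluorescence; higher fluorescence means more inhibition of phage lysis; actives were called in the ten point dose series up to 300 µM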
# WT yeast gro inh mutant strain: second read-out of WT yeast gro inh, no call of its own (marks repeat the call); inhibition, %; mitochondrial fusion phenotypic screen, mutant strain inhibition
# Hep lipid drop cells 6.5 µM: also measured in Hep lipid drop; calls as there; cell count; measured here: cell count, cytotoxicity flag;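 cells counted across two imaged fields per well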
# Myeloid diff 2 GFP+ MAC1+ %: second read-out of Myeloid diff 2, no call of its own (marks repeat the call); GFP+ MAC1+ double positive, %; measured here: differentiation confirmed by MAC1 staining
# An asterisk follows results filed as active; i = inactive; u = inconclusive; x = no result given; [ ] = remark or other dose.
SMILES,CSM14.1 death rescue,WT yeast gro inh,WT yeast gro inh mutant strain,TNAP activators,Myeloid diff 2,Myeloid diff 2 GFP+ MAC1+ %,Hep lipid drop,M1AAP inhibition,UTI89 phage lysis,others
CCOC(=O)c1c(C)[nH]c(C)c1C(=O)COC(=O)c1cccc(S(=O)(=O)N(CC)CC)c1,-0.8%,-14.6,-48.7,0.9,i,1.4,x,8.1%,-0.5%,
C=CCNC(=O)c1ccccc1Cl,-3.0%,16.9,16.1,1,i,4.5,x,-4.0%,1.6%,
CCCCNc1cc(=O)n(C)c(=O)n1C,2.4%,12.1,-13.7,1.1,i,1.1,x,3.8%,1.1%,
O=C(NC(Cc1c[nH]c2ccccc12)c1nnc2n1CCCCC2)c1ccccc1 (stereo unspecified),-0.9%,15.8,11.5,1.1,i,6.9,x,3.0%,-1.4%,
CC(=O)NC1(C(F)(F)F)NC(=O)N(C2CCCCC2)C1=O (stereo unspecified),-0.5%,0.9,-4.2,1.1,i,2.4,x,2.5%,0.3%,
CCc1nc(SCC(=O)c2cccs2)c2oc3ccccc3c2n1,1.0%,-24.6,16.8,0.9,i,0.8,x,5.8%,-0.1%,
Cc1ccc(S(=O)(=O)Nc2nc(C)cc(NCCN)n2)cc1,0.8%,2.9,2.6,1,i,7.2,1.8,5.6%,0.3%,Hep lipid drop cells 6.5 µM=765
Cc1cc(C)nc(/N=C(\N)Nc2ccc(F)c([N+](=O)[O-])c2)n1,-3.3%,2.9,3.4,1,i,2.4,x,0.7%,-0.8%,
CCC1CCCCN1CCCNC(=O)Cn1nc(-c2ccc(C)cc2)ccc1=O (stereo unspecified),-0.8%,-12.0,-20.4,1,i,1.0,x,8.8%,0.1%,
CC(=O)NC(=S)Nc1ccc(-c2nc3ccc(C)cc3s2)cc1,-1.7%,6.4,8.4,1.1,i,0.2,x,2.8%,0.5%,
Nc1nc2ccccc2nc1N1CCCC1,-1.7%,4.7,-63.0,1.1,i,1.4,x,3.6%,2.3%,
COc1ccc(NC(=O)CSc2ncnc3c2cnn3CCc2ccccc2)cc1,-0.7%,7.2,-11.4,1.1,i,0.8,x,-7.8%,0.3%,
Cc1ccc(C(=O)Nc2ccccc2Oc2ccccc2)cc1[N+](=O)[O-],2.2%,60.8*,26.1*,1,i,0.7,x,-2.6%,-1.5%,
CCCCn1nc2cc(C(=O)NCc3ccccc3)ccc2c1OCC,-0.5%,22.9,0.3,1.1,i,1.5,x,9.1%,0.1%,
CC(=O)OCP(C)(=O)COC(C)=O,-1.6%,-6.2,-7.4,1.1,i,0.5,7.6,4.8%,0.3%,Hep lipid drop cells 6.5 µM=795
Cc1n[nH]c(=S)c2nn(-c3ccccc3)c(C)c12,-1.4%,4.9,18.9,1.1,x,x,x,-1.5%,x,
COc1ccccc1CCN1C(=S)NC(C)(C)CC1(C)O (stereo unspecified),-2.2%,70.0*,61.7*,1,i,0.6,x,4.0%,0.1%[50 µM],
NC(=O)C1(NC(=O)[C@@H]2CC3(CC(c4cccc(NC(=O)[C@@H]5CCC(=O)N5)c4)=NO3)CN2C(=O)Cc2ccc(Cl)cc2)CC1 (stereo partly specified),-4.2%,-1.6,-0.1,1.1,i,0.4,x,5.0%,2.1%,
Cc1sc(NC(=O)CN2CCOCC2)c(C(=O)c2ccccc2)c1C,0.4%,15.2,-5.6,1,i,0.8,x,3.4%,-0.1%,
O=C(O)CN=C1NC2(CCCC2)Cc2ccccc21,0.9%,-0.9,-6.2,1,i,0.7,x,0.6%,0.4%,
O=C(Nc1cccc(Cl)c1)OCc1cn(-c2ccc(Cl)cc2)nn1,0.8%,3.9,2.8,1.1,i,0.6,x,0.8%,0.2%,
CCSc1nnc(-c2ccncc2)o1,-2.0%,-3.9,-14.9,1.1,i,0.8,x,3.8%,0.6%,
O=C(CSc1nnc2c3ccccc3c3ccccc3c2n1)Nc1ccccc1F,-3.1%,13.2,-5.0,1.1,x,x,x,14.6%,1.5%,
O=C1CSC(c2ccccn2)N1c1ccc2ccccc2c1 (stereo unspecified),1.4%,-12.0,-13.0,1.1,i,1.1,x,-1.6%,-0.1%,
C[N+]1(CC(=O)Nc2ccc(F)cc2)CCN(C(=O)c2ccco2)CC1,0.3%,67.4*,20.9*,1.1,i,1.2,x,0.6%,5.4%,
CCCCC(=O)Nc1cc(C(=O)NCCc2ccccc2)ccc1Cl,-1.2%,27.8,13.8,1.1,i,2.9,x,6.8%,0.5%,
O=C(CCCN1C(=O)C2C3C=CC(C3)C2C1=O)N1CCN(c2ccccc2)CC1 (stereo unspecified),-1.3%,6.7,-10.5,1.1,i,0.4,x,9.4%,0.2%,
Cc1ccc(-n2c(Cc3cccn3C)nnc2SCC(=O)N2CCc3ccccc32)cc1,1.2%,3.4,3.8,1.1,i,7.8,x,3.8%,-0.7%,
OCC1N=C(c2ccccn2)OC1c1ccccc1 (stereo unspecified),-2.2%,-16.5,-7.7,1.1,i,4.3,x,4.5%,0.3%,
Cc1cc[n+](CC(=O)Nc2cc(C(F)(F)F)ccc2Cl)cc1,1.1%,3.4,-2.9,1,i,7.1,x,9.2%,6.6%,
COc1cccc(C2CC(C(F)(F)F)n3ncc(C(=O)NC(C)(C)C)c3N2)c1 (stereo unspecified),-0.6%,6.9,-7.2,1.1,i,0.4,x,4.5%,0.1%,
CCOc1ccc(NC(=O)c2nnn(CC(=O)Nc3ccccc3OC)c2N)cc1,-2.8%,-3.9,10.8,1.1,i,0.2,x,4.1%,1.8%,
COc1ccc(/C=C/C(=O)NCc2c(C)nn(C)c2C)cc1COc1ccc(Br)cc1,-6.8%,25.3,-9.8,1,i,0.3,x,0.5%,3.4%,
CCOC(=O)c1cnc2c(N=Nc3cccc(Cl)c3)c(N)nn2c1N,-1.6%,18.8,8.7,1,x,x,x,5.0%,x,
Cc1ccccc1NCC(=O)N/N=C/C(Br)=C/c1ccccc1,-0.9%,8.6,4.7,1,u,x,-9.7,-0.4%,-1.8%,Hep lipid drop cells 6.5 µM=776
Cc1ccc(NC(=O)CSc2nnc(Cn3cnc4ccccc43)o2)c(C)c1,-0.7%,6.7,-8.2,1.1,i,1.6,x,4.0%,0.1%,
Cc1ccc(-c2nc3c(cnn3-c3ccccc3)c(=O)o2)cc1,3.4%,-6.6,4.3,1.1,i,0.9,12.9,0.3%,-0.1%[50 µM],Hep lipid drop cells 6.5 µM=750
CCOc1cc(/C=N/O)ccc1OS(=O)(=O)c1ccc(C)cc1,2.4%,-26.8,-17.2,1,i,1.0,x,13.6%,-0.6%,
Cc1ccc(NC(=O)N/C=C/c2ccc(Cl)cc2)cc1,-0.9%,-8.9,-0.7,1.1,i,0.3,x,12.3%,0.4%,
COc1ccc(S(=O)(=O)N2CCCN(CC(=O)Nc3ccc4c(c3)OCO4)CC2)cc1,-3.7%,24.7,-4.2,1.1,i,0.2,x,0.9%,2.8%,
CCOc1ccc(N=C2NC(=O)S/C2=C\c2ccc(O)cc2)cc1,-1.5%,-17.7,-7.3,0.8,i,0.4,x,9.9%,-0.3%,
CCN(CC)S(=O)(=O)c1cc(-c2nn(C)c(=O)c3ccccc23)ccc1C,0.1%,2.8,10.6,1.1,i,1.0,x,-2.4%,0.3%,
O=C(NCc1ccccc1)c1cnc2n(c1=O)CCS2,0.5%,-3.3,-13.1,1.1,i,1.8,x,0.5%,1.8%,
Cc1ccc(S(=O)(=O)N2CCN(C(=O)CN3CCOCC3)C2)cc1,-3.9%,-10.8,5.5,1,i,0.7,x,6.0%,1.3%,
COc1ccc(Nc2nc(N)nc(CN(C)C3CCCCC3)n2)cc1,-0.7%,-6.7,-2.8,0.8,i,0.5,x,2.4%,-0.6%,
CCN(CC)CCNC(=O)C1CCC(=O)N(c2ccc(OC)cc2)C1c1ccc(F)cc1 (stereo unspecified),-0.8%,10.2,5.2,1.1,i,0.7,x,2.5%,0.4%,
CCCOc1cccc(-c2cc(-c3n[nH]c(=S)n3CC)c3ccccc3n2)c1,0.0%,64.9,66.0,0.9,i,5.8,x,-13.1%,0.1%,
O=C(NC(=S)Nc1ccc(N2CCCCC2)c(Cl)c1)c1ccc2c(c1)OCCO2,-1.3%,8.1,23.6,1,i,0.7,x,0.4%,0.7%,
Nc1c(Cl)ncnc1N1CCOCC1,1.5%,2.5,2.8,1.1,i,4.3,x,3.7%,0.2%,
CCOc1cc(C)c(Cl)cc1S(=O)(=O)N(C)C,x,-9.6,-0.5,1.1,i,0.9,-7.9,-4.5%,0.3%,Hep lipid drop cells 6.5 µM=680
# Additional structures follow.
SMILES,CSM14.1 death rescue,WT yeast gro inh,WT yeast gro inh mutant strain,TNAP activators,Myeloid diff 2,Myeloid diff 2 GFP+ MAC1+ %,Hep lipid drop,M1AAP inhibition,UTI89 phage lysis,others
CC1(C)CC(=O)C=C(NCc2ccc(Cl)c(Cl)c2)C1,7.1%,11.7,19.4,1.1,i,2.4,x,0.5%,3.8%,
O=C(c1cccc(F)c1)N1C2C=CC(C2)C1(C(F)(F)F)C(F)(F)F (stereo unspecified),0.6%,-18.6,46.9,1,i,0.4,x,9.0%,0.1%,
Cc1ccc2c(c1)[C@@H]1CN(C)CC[C@@H]1N2S(=O)(=O)c1ccc([N+](=O)[O-])cc1,-0.6%,4.5,4.0,1,i,0.9,x,6.9%,0.0%,
O=C(c1cccs1)N1CCN(C(=O)C(c2ccccc2)c2ccccc2)CC1,-0.3%,15.8,0.0,1.1,i,1.2,x,3.1%,-0.1%,
COc1ccc(Oc2nc3c(c(=O)n(C)c(=O)n3C)n2Cc2ccccc2)cc1,1.2%,-1.9,9.4,1.1,i,1.4,-0.4,1.5%,4.4%[50 µM],Hep lipid drop cells 6.5 µM=822
COC(=O)c1sc(=S)n(-c2ccccc2OC)c1N,2.0%,17.1,0.2,1.1,i,0.7,x,2.9%,0.0%,

# A portion of the library (hit frequency here may not be typical).
